# Screening results: PubChem, ICCB-Longwood Screening Facility, Harvard Medical School
# Sa growth inh: blocks Staphylococcus aureus growth | relative growth, % (test concentration not listed) | S. aureus RN4220 growth, OD600, 20 h, 42 °C; stronger effect = lower value | 170,000 tested, 0.53% active;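 active means growth at 42 °C up to 50% and 20 or more points under that at 30 °C, or under 10% at both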;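 further: 300 nL library stock went into each well; scaled to the means of positive and negative controls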
# HCMV UL50-53 inh: cytomegalovirus nuclear egress complex inhibition; HTRF UL50-UL53 interaction, normalized percent inhibition; inhibition, % (no concentration beside the values); 190,000 tested, 0.15% active;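 active means both replicates at 50% or more, plus weaker picks with an unusually low signal ratio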;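 further: stock transfer was 100 nL into about 20 µL; 0% = negative control wells and 100% = wells with untagged competitor protein; inactives centre near -12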
# GIV-Gai inh: blocks GIV peptide binding to rat Galpha-i3; percent of control (FP), % (test concentration not listed); 210,000 tested, 0.42% active; AID 1224905; Galpha-i3/FITC-GIV peptide fluorescence polarization, 90 min; stronger effect = lower value; scaled: aluminum fluoride 0%, vehicle 100%;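 active means replicate mean at 85% of control or lower, very high polarization wells dropped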;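 further: wells of about 15 µL received 100 nL stock; the first replicate is given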
# Target sequence (P08753 whole entry, looked up): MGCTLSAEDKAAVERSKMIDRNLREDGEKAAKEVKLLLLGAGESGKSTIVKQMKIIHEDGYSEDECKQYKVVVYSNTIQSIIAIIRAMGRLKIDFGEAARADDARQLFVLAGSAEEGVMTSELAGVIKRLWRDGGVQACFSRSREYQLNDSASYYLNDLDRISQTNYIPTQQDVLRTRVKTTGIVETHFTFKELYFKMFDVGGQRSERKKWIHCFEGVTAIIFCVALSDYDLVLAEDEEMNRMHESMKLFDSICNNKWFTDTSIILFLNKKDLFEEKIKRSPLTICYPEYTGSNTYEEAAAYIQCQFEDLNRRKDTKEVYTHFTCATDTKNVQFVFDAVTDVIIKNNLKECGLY
# Sa growth inh second temp: second read-out of Sa growth inh, no call of its own (marks repeat the call); relative growth, %; measured here: growth at 30 °C;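 optical density after 20 h as mean of two plates; 100% = untreated growth and lower means inhibition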
# Starred values were filed as active, the others as inactive; . = no result given; & = joins results of further samples.
SMILES,Sa growth inh,Sa growth inh second temp,HCMV UL50-53 inh,GIV-Gai inh
CCn1c2ccccc2c2nnc(N3CCN(c4cc(C)ccc4C)CC3)nc21,110,93,-9,100
COc1ccc(/C=C/C(=O)N2CCCCC2)cc1OC,110,93,-7,.
CCN(CC)C(=O)c1ccc2c(c1)N(Cc1ccccc1)C(=O)c1ccccc1S2(=O)=O,97,95,5,104
Cc1ccc(C)c(N2CCN(C(=O)c3nc4cc(C)c(C)cc4n(C)c3=O)CC2)c1,.,.,-34,102
COc1cc(C=C2C(=O)NC(=O)NC2=O)ccc1OCCSc1ccc(C)cc1,.,.,9,93
c1cncc(CSc2ccc3nnc(-c4cccnc4)n3n2)c1,93,91,6,106
CCCCCn1c(CN(C)C(C)=O)nc2ccccc21,.,.,2,98
CC1CCN(C(c2cccs2)c2nnnn2Cc2ccccc2)CC1 (stereo unspecified),94,83,-2,101
Cc1ccc2[nH]cc(C(O)CN3CCN(c4ccccc4F)CC3)c2c1 (stereo unspecified),.,.,-7,106
OC(c1ccccc1)(c1ccccc1)C1CCN(C(=S)NCc2ccco2)CC1,99,88,1,110

# The final 2 entries of the part before open the next one.
SMILES,Sa growth inh,Sa growth inh second temp,HCMV UL50-53 inh,GIV-Gai inh
Cc1ccc2[nH]cc(C(O)CN3CCN(c4ccccc4F)CC3)c2c1 (stereo unspecified),.,.,-7,106
OC(c1ccccc1)(c1ccccc1)C1CCN(C(=S)NCc2ccco2)CC1,99,88,1,110
CN(C)C(=O)Cn1nc(-c2ccccc2)c2ccccc2c1=O,111,80,-5,99
CCCc1nn2c(=O)cc(COC(=O)c3ccccc3NC(=O)COc3ccccc3)nc2s1,71,87,.,99
O=C(OCc1ccco1)c1ccc2c(c1)N(Cc1ccc([N+](=O)[O-])cc1)C(=O)c1ccccc1S2,96,92,.,102
CCN1CCc2c(sc3c2CN(C(=O)NCCC(C)C)C(c2ccccc2)c2cccn2-3)C1 (stereo unspecified),.,.,1,126
COc1ccc(CNn2c(C)n[nH]c2=S)cc1,106,109,0,109
O=C(CSc1ccc(Cl)cc1)N=C1NC(=O)CS1,93,96,-13,133
CC(C)NC(=O)c1ccc(NC(=O)N2CCCCc3ccccc32)cc1,103,90,.,90
O=C(O)c1ccc(N2CC3CC(C2)c2cccc(=O)n2C3)c(NS(=O)(=O)c2cccc(C(F)(F)F)c2)c1 (stereo unspecified),101,90,-7,97
COc1ccc(Oc2ncnc3oc(C)c(C)c23)cc1,.,.,-25,105
CCOc1ccc2ncc(C(=O)c3ccc(OC)cc3)c(N3CCN(C)CC3)c2c1,87,45,-32,105
N#Cc1c(-c2ccc3c(c2)OCO3)csc1N,106,80,1,102
COc1ccc(N2CCN(S(=O)(=O)c3ccc4oc(=O)c5ncn(C)c5c4c3)CC2)cc1,115,96,.,106
C=CCSc1ncc(-c2ccc(Cl)cc2)[nH]1,101,69,2,103
CCOc1ccc(CNc2ccc(CNc3ncn[nH]3)cc2)cc1,88,97,.,93
CCN(CC)C(=O)CSc1nc2ccc(N3CCOCC3)cc2c(=O)n1Cc1ccc2c(c1)OCO2,109,87,1,101
CCOc1ccc(NC(=O)c2cnn(-c3ccc(C)c(C)c3)c2C2CCN(C(=O)OC(C)(C)C)CC2)cc1,102,90,12,103
COc1ccc(-c2nn3c(-c4ccc(N(C)C)cc4)nnc3s2)cc1OC,.,.,-12,104
CC(C)(C)CC(=O)NCC(c1ccc2c(c1)OCO2)N1CCN(c2ccccc2)CC1 (stereo unspecified),112,83,.,98
CC(C)(C)S(=O)(=O)c1ccc(C(=O)O)s1,99,90,.,106
N#CC1=C(N)Oc2c(c(=O)oc3ccccc23)C12C(=O)Nc1ccccc12 (stereo unspecified),92,105,29,107
CCOc1ccc(N2CCCCn3c2nc2c3c(=O)n(CC(C)C)c(=O)n2C)cc1,.,.,-16,96
Cc1cccc(Cn2c(C)c(C)c3cc(C(=O)NCCC(C)C)ccc32)c1,.,.,-12,101
O=c1[nH]cnc2scc(-c3cccs3)c12,126&96,100&77,-35&-79,106&107
COc1ccc(C(=O)OCc2ccccc2F)c(OC)c1OC,106,92,-18,.
CCc1cc2c(SCC(N)=O)ncnc2s1,95,101,4,108
Cn1nc(-c2ccc(C(=O)Nc3ccc(Cl)cc3)s2)cc1C(F)(F)F,105,94,-22,102
CN(C)S(=O)(=O)c1ccc(N2CCCC2)c(C(=O)OCC(=O)NCc2ccc3c(c2)OCO3)c1,91,94,-14,.
Cc1cccc(Cn2c(=O)n(Cc3ccc(C(=O)NC4CCN(Cc5ccccc5)CC4)cc3)c(=O)c3ccccc32)c1,119,90,10,103
COc1ccccc1N1CCN(/C=C2/SC(=S)NC2=O)CC1,107,92,-20,110
CCC1=C(c2ccc(C)cc2)S(=O)(=O)N=C1N1CCC(C(=O)N2CCN(c3ccccn3)CC2)CC1,.,.,-41,102
COC(=O)c1c(NC(=O)c2cc3nc(-c4ccc(Br)cc4)cc(C(F)(F)F)n3n2)sc2c1CCCC2,83,87,.,100
O=C(c1ccc(Cl)cc1)N(c1ccccn1)C1CCCCC1,110,92,-4,.
O=C(CN1C(=O)COc2ccc(S(=O)(=O)N3CCCCCC3)cc21)N1CCN(c2cccc(C(F)(F)F)c2)CC1,88,94,-4,96
CCOC(=O)CN(C)c1nc(-c2ccc(OC)c(OC)c2)cs1,113,103,-30,102
Cc1ccc(S(=O)(=O)c2nc(-c3ccco3)oc2SCc2ccccc2Cl)cc1,99,88,-7,98
Cc1ccc(S(=O)(=O)N2CCC(n3c(C)nc4cccnc43)CC2)c(C)c1,122,81,.,99
Cn1nc(-c2ccc(Cl)cc2)c2cc(C(=O)NCc3ccccn3)sc21,126,95,2,105
CCCOc1ccc(C2N=C(N)Nc3nc4ccccc4n32)cc1 (stereo unspecified),.,.,-34,101
CNc1nc(Oc2ccc(=O)n(C)n2)nc(SC)n1,105,98,-18,97
Cc1ccccc1Cn1cnc2ccccc21,116,90,-38,105
N#Cc1cc2cc3c(cc2nc1N1CCCN(C(=O)c2ccccc2)CC1)OCO3,95,94,-6,100
O=c1[nH]c2ncccc2c(=O)n1Cc1ccccc1,103,94,.,98
CC(=O)c1ccc(NC(=O)C2CCN(S(=O)(=O)c3ccc4c(c3)CCCN4C(=O)C3CCC3)CC2)cc1,107,84,.,107
O=C(N/N=C/C=C/c1ccco1)c1ccccc1F,101,94,-92,100
CCCCCOC(=O)CSc1nc(N)c2c3c(sc2n1)COC(C)(C)C3,.,.,-16,97
COc1ccc(CNC(=O)Cc2c(C)c3c(cc(C)c4c(C)coc43)oc2=O)cc1OC,101,87,-39,100
CC1CCCC(C)N1C(=O)CSc1nnc(CN(c2ccc(F)cc2)S(C)(=O)=O)n1C (stereo unspecified),.,.,-2,106
Cc1ccc(NC(=O)CSc2nc3ccccc3c(=O)n2C2CCCC2)cc1,99,85,4,104
Cc1ccc(NC(=O)c2nc(S(C)(=O)=O)ncc2N(Cc2ccccc2)Cc2ccco2)c(C)c1,99,80,-32,96
CCOC(=O)c1c(C)n(CC)c2ccc(OC(=O)c3ccc(C)cc3)cc12,.,.,-5,92
# Other records.
SMILES,Sa growth inh,Sa growth inh second temp,HCMV UL50-53 inh,GIV-Gai inh
CS(=O)(=O)Nc1ccc2c(c1)OCCO2,83&107,89&94,-16&5,101&98
O=C(Nc1sc2c(c1-c1nc3ccccc3s1)CCCC2)C1=COCCO1,108,96,0,100
O=C(O)C1=Cc2sc3c(c2CS1)CCCC3,64,40,.,93
O=C(/C=C/c1cccs1)NCC(c1ccc(F)cc1)N1CCOCC1 (stereo unspecified),117,88,-41,.
N=c1c(S(=O)(=O)c2ccccc2)cc2c(=O)n3ccccc3nc2n1Cc1cccnc1,101,83,-68,106
Cc1ccc(C)c(NC(=O)CSc2nc3ccccc3o2)c1,.,.,-3,108
O=c1oc(-c2cccs2)nc2cccc(F)c12,101,87,.,97
CC1Sc2nnc(Cc3ccc(Br)cc3)n2N=C1c1ccc(NS(C)(=O)=O)cc1 (stereo unspecified),101,69,-35,.
COCc1cc(=O)[nH]c(-c2csc(C)n2)n1,101,92,6,105
O=C(NCCN1CCCC1)c1n[nH]c(=O)c2ccccc12,93,91,-1,104
NC(=O)c1ccc(Oc2ncc(C(F)(F)F)cc2Cl)cc1,.,.,-14,97
COc1cc(/C=C2/C(=O)N(c3ccccc3)N=C2C)ccc1OS(=O)(=O)c1ccccc1[N+](=O)[O-],.,.,-34,106
Fc1cccc(-c2nc3ncccc3o2)c1,.,.,-12,102
CC(C)CCNC(=O)c1c[nH]c2ccc(S(=O)(=O)Nc3cccc(C(F)(F)F)c3)cc2c1=O,114,87,.,105
COc1ccc2c(CNCc3ccco3)c(C(=O)O)n(Cc3cccc(F)c3)c2c1,93,90,.,103
CCCSCCCn1cnc2c([nH]c3cc(OC)ccc32)c1=O,92,86,-11,106
Cc1cc(C)nc(NS(=O)(=O)c2ccc(NC(=O)c3ccccc3Br)cc2)n1,.,.,-1,96
CC1CCCCC1NC(=O)COC(=O)c1ccc(O)cc1 (stereo unspecified),107,88,-1,.
CCOC(=S)SCc1cn2cccnc2n1,89,81,.,98
Cc1c(NC(=O)c2cccc(F)c2)c(-n2cnnc2)nn1C,.,.,-12,97

# Molecules listed so far that contain a cyano group, in the order listed:
SMILES,Sa growth inh,Sa growth inh second temp,HCMV UL50-53 inh,GIV-Gai inh
N#Cc1c(-c2ccc3c(c2)OCO3)csc1N,106,80,1,102
N#CC1=C(N)Oc2c(c(=O)oc3ccccc23)C12C(=O)Nc1ccccc12 (stereo unspecified),92,105,29,107
N#Cc1cc2cc3c(cc2nc1N1CCCN(C(=O)c2ccccc2)CC1)OCO3,95,94,-6,100

# Reformatted tab-delimited: 7 of the compounds above.
canonical_smiles	Sa growth inh	Sa growth inh second temp	HCMV UL50-53 inh	GIV-Gai inh
Cc1c(NC(=O)c2cccc(F)c2)c(-n2cnnc2)nn1C	.	.	-12	97
CC1CCCCC1NC(=O)COC(=O)c1ccc(O)cc1 (stereo unspecified)	107	88	-1	.
Cc1cc(C)nc(NS(=O)(=O)c2ccc(NC(=O)c3ccccc3Br)cc2)n1	.	.	-1	96
NC(=O)c1ccc(Oc2ncc(C(F)(F)F)cc2Cl)cc1	.	.	-14	97
CCCSCCCn1cnc2c([nH]c3cc(OC)ccc32)c1=O	92	86	-11	106
COc1ccc2c(CNCc3ccco3)c(C(=O)O)n(Cc3cccc(F)c3)c2c1	93	90	.	103
COc1cc(/C=C2/C(=O)N(c3ccccc3)N=C2C)ccc1OS(=O)(=O)c1ccccc1[N+](=O)[O-]	.	.	-34	106

# Next section
SMILES,Sa growth inh,Sa growth inh second temp,HCMV UL50-53 inh,GIV-Gai inh
CCCCCC(=O)N1c2ccccc2C(C)(c2ccccc2)CC1(C)C (stereo unspecified),102,88,-6,106
COc1ccc(-c2nc3c(n2O)CCC/C3=N\O)cc1,101,105,-35,100
CC(C(=O)NCC1CCCCC1)N1CCN(c2ccc(F)cc2)CC1 (stereo unspecified),102,91,-13,.
Cc1sc2nc(CSCC(=O)NC(=O)c3cccn3C)[nH]c(=O)c2c1C,86,95,-12,.
COC(=O)c1ccccc1NC(=S)N1CCCCC1,92,97,4,.
O=S(=O)(c1ccc(-c2csnn2)cc1)N1CCOCC1,97,82,-18,99
Cc1c(C(=O)N(C)C)sc2c1c(=O)n(-c1ccccc1C(F)(F)F)c(=O)n2Cc1cccc(F)c1,87,85,.,99
N=c1sccn1CC(=O)NC(=O)NC1CCCC1,93,91,-4,.
C/C(Cn1c(=O)oc2ccccc21)=N\OC(=O)c1ccc(Cl)cc1,106,101,14,108
Cc1cc(C)c(S(=O)(=O)N2CCC(N3CCN(Cc4ccccc4)C(=O)C3=O)CC2)c(C)c1,88,95,-8,103&96
O=C1C2C3C=CC(C3)C2C(=O)N1c1ccc(Oc2ccc(N3C(=O)C4C5C=CC(C5)C4C3=O)cc2)cc1 (stereo unspecified),.,.,4,102
Cc1ccc(-c2nnc(NCc3ccco3)c3ccccc23)cc1C,92,90,-31,.
COCCN=Cc1cc(Br)cc(Br)c1O,41,13,18,.
O=C(c1ccccc1)c1cccn1CC(=O)N1CCCCCC1,104,83,2,101
CC(=O)OCc1nc2ccccc2s1,95,101,2,107
Cc1cccc(-c2nc3ccccc3o2)c1,84,63,0,98
COC(=O)Cn1c(=O)oc2cc(S(=O)(=O)N3CCC(N(C)C(C)C)CC3)ccc21,.,.,-2,104
CCN(CC)c1ccc(NS(=O)(=O)c2ccc(F)cc2)cc1,113,98,-4,94
O=C(c1ccc(CS(=O)Cc2cccc(Cl)c2)o1)N1CCN(Cc2ccccc2)CC1 (stereo unspecified),93,80,-28,101
COc1nc(-c2ccccc2)nnc1C(F)(F)F,.,.,-17,101
CCC(CC)C(=O)Nc1ncc2c(n1)CC(C)CC2=O (stereo unspecified),110,92,-34,107
Cc1ccc(C)c(N2CCN(Cc3csc(C)c3C)CC2)c1,69,92,.,103
O=C(CCCc1ccccc1)NN1CCOCC1,98,98,6,102
O=C(CCc1nc2cccnc2n1-c1ccccc1)NC1CCCC1,84,88,.,107
CC(C)(C)c1ccc(C(=O)NCCN2CCOCC2)cc1,115,87,2,.
COCCSc1nnc(NS(=O)(=O)c2ccccc2)s1,98,91,-15,108
O=C(O)c1ccc(S(=O)(=O)c2ccc3c4c(cccc24)C(=O)N(c2cccc(O)c2)C3=O)cc1,.,.,-66,107
O=C(COC(=O)CC1CC2CCC1C2)NC1CC1 (stereo unspecified),97,92,-15,.
COc1ccccc1NC(=O)[C@H](CSCc1ccccc1)N1Cc2ccccc2C1=O,93,96,.,102
CCCN1C(=O)/C(=N\OCC(=O)Nc2cccc(Cl)c2)c2ccccc21,91,88,-23,.
Cc1csc(=O)n1CC(=O)OCC(=O)c1ccc(Cl)s1,85,86,3,.
